# RE007 growth inh: less growth of the S. pombe RE007 Vpr strain | S. pombe RE007 Vpr strain, BacTiter-Glo ATP luminescence, 24 h; control for the full effect not named in the record | Potency, µM (series often up to 92.2 µM), without a hit: top-dose activity change, negative = less growth | 0.21% of 360,000 active | AID 651644; active = well fitted falling curve with a large enough effect; inconclusive = small, poorly fitted or top-dose-only effect; inactive = no such curve, though single readings can be large or run the other way;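 also: % is scaled to controls: 0 for no effect and ±100 for the full control effect; nearly all actives have a fitted effect of over 50% in size; the assay follows cell death caused by Vpr and the record does not say whether a fall means rescue or toxicity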
#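 Fission yeast RE007 carrying one integrated HIV-1 vpr copy, seeded at OD 0.01 in PMG+AL medium with 23 nL pinned compound. Grown 24 h at 30 degrees; viability read by BacTiter-Glo luminescence after 5 min.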
# Cruzain inh Det: cruzain (T. cruzi) inhibition with detergent. P25779. purified cruzain, Z-FR-AMC fluorescence, 0.01% Triton. Potency, µM, without a hit: max response, negative = inhibition, hits mostly inhibitors. 0.43% of 200,000 active. AID 1478;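 also: plate controls were neutral wells for no effect and buffer without enzyme for full effect; nearly all actives have a fitted effect of over 40% in size; top concentration of the series not given in the record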
# Target sequence (P25779 123-467 limits assumed): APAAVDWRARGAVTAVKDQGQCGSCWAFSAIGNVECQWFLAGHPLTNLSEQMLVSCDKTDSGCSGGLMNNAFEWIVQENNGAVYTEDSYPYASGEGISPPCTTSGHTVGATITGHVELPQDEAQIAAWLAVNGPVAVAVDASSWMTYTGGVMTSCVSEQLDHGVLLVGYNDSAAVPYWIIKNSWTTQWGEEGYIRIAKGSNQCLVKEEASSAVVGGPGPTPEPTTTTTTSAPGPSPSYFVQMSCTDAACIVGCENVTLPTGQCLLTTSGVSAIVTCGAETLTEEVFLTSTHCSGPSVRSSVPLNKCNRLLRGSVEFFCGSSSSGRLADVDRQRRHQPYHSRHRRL
#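 Read-out: AMC fluorescence (360 nm excitation, 450 nm emission), four reads over 2 min, first-to-third difference used. Conditions: cruzain 1.5 nM, Z-FR-AMC 2 uM, pH 5.5 acetate, 5 mM DTT, 0.01% Triton X-100.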
# Cruzain inh noDet: cruzain (T. cruzi) inhibition without detergent. P25779. purified cruzain, Z-FR-AMC fluorescence, no detergent. Potency, µM, for the others: max response, negative = inhibition, actives largely listed as inhibitors. 2.3% of 200,000 active;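 also: plate controls were enzyme without inhibitor for no effect and buffer without enzyme for full effect; nearly all actives have a fitted effect of over 40% in size; top concentration of the series not given in the record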
#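 Purified cruzain at 1.5 nM, pre-incubated 15 min with compound at room temperature in 100 mM sodium acetate pH 5.5, 5 mM DTT, 0.00005% Triton X-100. Reaction started with 2 uM Z-FR-AMC; AMC fluorescence increase over 60 s gives rate.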
# SARS PLpro yeast: SARS-CoV PLP inhibition in yeast; S. cerevisiae expressing SARS-CoV PLpro, growth rescue; control for the full effect not named in the record; Potency, µM (highest dose often 32.9 µM), for the others: top-dose activity, positive = growth rescue; 0.19% of 330,000 active; AID 485353; active means well fitted rising curve with a large enough effect; inconclusive means small, poorly fitted or top-dose-only effect; inactive means no such curve, though single readings can be large or run the other way; also: 0% is about no effect; nearly all actives have a fitted effect of over 55% in size; growth read by luminescence after 48 h
# LASV entry inh: Lassa virus entry inhibition | Lassa virus pseudotype entry inhibition, cell reporter; control for the full effect not named in the record | Potency, µM (highest dose often 37.9 µM), for the others: top-dose activity change, negative = inhibition, hits mostly inhibitors | 1.2% of 300,000 active; active means well fitted inhibition curve with a large enough effect; inconclusive means small, poorly fitted or top-dose-only effect, or effect the other way; inactive means flat fitted curve, though single readings scatter; tested in HEK293 cells; also: % is scaled to controls: 0 for no effect and ±100 for the full control effect; nearly all actives have a fitted effect of over 50% in size; luciferase read-out
# NS1 inh: inhibitors of influenza NS1 protein function; 0.4% of 270,000 active; Potency, µM (titrated, usually from 46.1 µM), without a hit: at the highest dose activity, positive = more growth; S. cerevisiae slowed by influenza A NS1, growth recovery by OD600; active means well fitted rising curve with a large enough effect; inconclusive means small, poorly fitted or top-dose-only effect; inactive means no such curve, though single readings can be large or run the other way; also: nearly all actives have a fitted effect of over 50% in size
#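 A cell-based growth assay was used: compounds that relieve NS1-induced slow growth of budding yeast raise OD600. Assay medium was yeast nitrogen base with ammonium sulphate and -URA supplement, pH 6.0, with 2% galactose.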
# Marburg entry inh: blocks Marburg virus binding to or entry into cells | Marburg virus pseudotyped entry inhibition, cell reporter; control for the full effect not named in the record; about a third of the inactives were read at about 46 µM | Potency, µM (top dose mostly 37.8 µM), without a hit: at the highest dose activity change, negative = inhibition, usual class: inhibitors | 1.8% of 300,000 active | AID 540276; active = well fitted inhibition curve with a large enough effect; inconclusive = small, poorly fitted or top-dose-only effect, or effect the other way; inactive = flat fitted curve, though single readings scatter; tested in HEK293 cells; about a fifth of its hits are not listed in these tables; also: % is scaled to controls: 0 for no effect and ±100 for the full control effect; luciferase read-out
# 2A StopGo: FMDV 2A StopGo reporter, luciferase signal; human cells with a luciferase reporter of 2A StopGo recoding; control for the full effect not named in the record; Potency, µM (highest dose often 57.9 µM), for the others: at the highest dose signal change, negative = less light; 1.2% of 410,000 active; active = well fitted falling curve with a large enough effect; inconclusive = small, poorly fitted or top-dose-only effect; inactive = no such curve, though single readings can be large or run the other way; tested in HEK293T cells; also: % is scaled to controls: 0 for no effect and ±100 for the full control effect; nearly all actives have a fitted effect of over 45% in size; luciferase light after 4 h
# Numbers without * were called inactive; ? = inconclusive; . = not tested or not shown; & = joins results of further samples; [ ] = remark or other dose. Unless noted, calls follow the shape of the dose curve; as a rule, active = well fitted curve in the direction sought with a large enough effect; inconclusive = small, poorly fitted or top-dose-only effect, or another doubt; inactive = no such curve, though single readings can be large; an effect the other way counts as inactive or inconclusive. Potency is read from the fitted curve at half-maximal effect.
SMILES,RE007 growth inh,Cruzain inh Det,Cruzain inh noDet,SARS PLpro yeast,LASV entry inh,NS1 inh,Marburg entry inh,2A StopGo
COc1cccc(OC)c1C(=O)Nc1nc(N)n(-c2ccccc2)n1,-12%,3.7%,6%,2%,2%,-4%,?,23%
CCOc1ccccc1NC(=O)c1ccc2c(Cl)c3c(nc2c1)CCCC3,.,1.8%,0%,.,9%[46.1 µM],.,18%[46.1 µM],14%
O=C(COc1ncnc2ccccc12)Nc1ccc(Cl)c(S(=O)(=O)N2CCOCC2)c1,-3%,.,.,-1%,2%,-2%,10%[46.1 µM],-23%
COc1cccc(-c2nnc(NC(=O)Cc3cccs3)s2)c1,7%,-3.9%,-23%,1%,15%,13%,-13%,29%
CC(C)CCn1c(SCC(=O)OCn2nnc3ccccc3c2=O)nc2ccccc2c1=O,-4%,-5.8%,18%,-1%,-10%,-18%,23%,.
CCCCCC(=O)N/N=C(\C)c1ccc(N2CCCCC2)cc1,-11%,-5.8%,-2%,14µM*,-20%,28%,?,20%
CC(C)OP(=O)(OC(C)C)C(Nc1ccc([N+](=O)[O-])cc1)c1cccc([N+](=O)[O-])c1 (stereo not drawn),-1%,.,.,0%,.,-10%,.,?
O=C(c1ccco1)N1CCN(C(=O)c2cc(-c3ccccn3)nc3ccc(Cl)cc23)CC1,0%,-12%,?,2%,?,-3%,-10%,-4%
Cc1ccc(-n2nnc3c(=O)oc4ccccc4c32)cc1,-1%,-1.7%,-6%,-17%,-3%,-73%,1%,-25%
COc1cc(C(=O)Nc2nc3ccc(S(=O)(=O)N4CCOCC4)cc3s2)cc(OC)c1OC,-2%,-4.0%,?,-2%,-1%,-16%,-5%&-5%,-10%
CC1=NN(c2nc(-c3ccccc3)cs2)C(=O)C1N=Nc1ccccc1 (stereo not drawn),1%,.,.,-3%,11%[46.1 µM],.,-2%[46.1 µM],0%
CCN(CCCNC(=O)c1cc2c(Cl)nc3ccccc3c2s1)Cc1ccccc1,.,-0.8%,2%,.,-23%[46.1 µM],.,?,?
CCOc1ccc(N2C(=O)Nc3ccc(Br)cc3C2(O)C(=O)NC(C)C)cc1 (stereo not drawn),-2%,.,.,1%,8%[46.1 µM],-1%,-7%[46.1 µM],-4%
Cc1nnc(-c2ccccc2)nc1N(C)C,-14%,.,.,-1%,8%,-7%,-1%[46.1 µM],19%
COc1ccccc1NC(=S)N=Nc1c(O)[nH]c2ccc(Br)cc12,0%,.,.,-3%,.,-1%,.,-22%
CCn1ncc(CNC(=O)C2(C)CC2(Br)Br)c1C (stereo not drawn),-9%,-1.8%,2%,-10%,?,1%,2%,-8%
CC(C)(O)C(=O)NNC(=S)Nc1cccc(C(F)(F)F)c1,24%,.,.,0%,.,4%,.,-14%
Cc1cc(NC(=O)CSc2nnc(-c3ccccc3)n2Cc2ccco2)no1,7%,2.2%,-15%,5%,-15%,7%,-3%,-12%
N#CCCN(C(=O)COC(=O)C1CCN(S(=O)(=O)c2cccs2)CC1)c1ccccc1,3%,.,.,-1%,21%[46.1 µM],.,8%[46.1 µM],9%
CCOC(=O)N1CCN(C(=O)CNC(=O)Cn2cnc3ccccc3c2=O)CC1,12%,.,.,1%,4%,.,0%[46.1 µM],-4%
CC(C)(C)C1CCc2nc(NC(=O)c3cccc(Cl)c3)sc2C1 (stereo not drawn),.,-3.0%,-3%,.,1%[46.1 µM],.,?,2µM*
O=C(O)CN=C1NC2(CCCCC2)Cc2ccccc21,3%,2.9%,3%,2%,3%,7%,9%,-17%
Cc1cc(C(=O)NCC(=O)OCC(=O)NCCc2ccccc2)ccc1[N+](=O)[O-],-4%,.,.,-1%,3%,-3%,15%,-12%
COCCSc1nnc(NC(=O)CSCc2ccccc2)s1,-7%,-6.4%,3%,-9%,4%,-5%,6%,-7%
CCc1ccccc1NS(=O)(=O)c1cc(C)ccc1OC,-3%,1.4%,-13%,1%,8%,-4%,-22%[46.1 µM],21%
C#CCSc1nnc(-c2ccc(C)cc2)o1,?,-1.6%,5%,-11%,?,-6%,?,19%
Cc1ccc(NC(=O)Cn2nc(C)c3nn(-c4ccc(Cl)cc4)c(C)c3c2=O)cc1F,.,1.1%,-18%,.,-19%[46.1 µM],.,.,-24%
COc1cc(C(=O)c2ccccc2)c([N+](=O)[O-])cc1OC,16%,.,.,-1%,.,-4%,.,-13%
CCOc1cccc2cc(C(=O)Nc3nccs3)c(=O)oc12,-9%,-4.9%,4%,4%,11%,-11%,0%,64%[activator]
COc1ccc(S(=O)(=O)N/N=C(/C)c2ccncc2)cc1,8%,.,.,-2%,16%[46.1 µM],4%,2%[46.1 µM],26%
COc1cc(/C=c2\sc3nc(=O)c(-c4ccccc4)nn3c2=O)ccc1OCCC(C)C,6%,2.1%,0%,6%,14%,17%,23%,?
COc1ccc(OC)c(-c2nc3c(C)n[nH]c(=O)c3[nH]2)c1,-11%,4.4%,27%,-4%,0%,-9%,-24%,-6%
COc1ccccc1CNc1ncnc2onc(-c3ccc(F)cc3)c12,.,1.1%,-7%,.,0%[46.1 µM],.,.,-19%
COc1ccc(NC(=O)CCNS(=O)(=O)c2ccc(Br)s2)cc1,7%,-3.0%,-8%,3%,-23%,-5%,1%,.
Cc1ccc(C)n1NC(=O)c1ccccc1[N+](=O)[O-],45%,.,.,3%,10%[46.1 µM],7%,-2%[46.1 µM],-13%
Cn1c(N)c(C(=O)COC(=O)C2CCCCC2)c(=O)n(C)c1=O,-13%,3.0%,6%,-4%,7%[14.3 µM],-8%,16%,20%
CCOc1cccc(-c2nnc3sc(C4CCCCC4)nn23)c1,-14%,-7.5%,12%,-8%,?,-1%,12%&12%,-15%
Cc1cccc(C)c1NC(=O)CN(C)C(=O)c1ccc(-n2cncn2)c([N+](=O)[O-])c1,6%,.,.,0%,0%,.,-15%,-9%
Cc1c(C2C(C#N)=C(N)N(c3ccccc3C#N)C3=C2C(=O)CCC3)cnn1C (stereo not drawn),17%,-6.2%,3%,12%,16%,17%,4%,-15%
COC(=O)c1c(NC(=O)CC2SCC(C(=O)OC)NC2=O)sc2c1CCCC2 (stereo not drawn),-10%,-7.7%,?,0%,7%,-69%,-26%,-12%
Cc1ccc(-c2ccc(=O)n(CC(=O)NCC3COCCO3)n2)cc1 (stereo not drawn),4%,.,.,2%,14%[46.1 µM],4%,-4%[46.1 µM],-15%
CCOc1ccc(/C=C(\C#N)C(=O)Nc2sc3c(c2C(=O)OC)CCC3)cc1OC,.,2.8%,5%,.,2%[46.1 µM],.,.,-14%
CC(C)c1ccc(S(=O)(=O)N2CCN(C(=O)CN3C(=O)NC4(CCCC4)C3=O)CC2)cc1,-7%,.,.,?,12%,13%,-19%,-18%
COc1ccc(-c2cc(C(=O)OCc3ccccn3)c3ccccc3n2)cc1,-20%,.,.,-9%,?,-2%,5%,16%
CC(=O)NC1C(=O)N(CCc2ccccc2)c2ccc(Br)cc21 (stereo not drawn),11%,-2.4%,?,-7%,8%,29%,?,0%
CN(C)S(=O)(=O)c1cccc(NC(=O)COC(=O)c2cccnc2Cl)c1,3%,.,.,5%,-2%[46.1 µM],.,-8%[46.1 µM],14%
CCC(=O)CC(c1ccc([N+](=O)[O-])cc1)c1c(O)c2ccccc2oc1=O (stereo not drawn),6%,-3.2%,0%,-14%,12%,-5%,1%,21%
COc1ccc(Cn2c(C)c(C)c(C#N)c2NC(=O)Nc2ccc(F)cc2)cc1,-14%,4.6%,-3%,4%,1%,5%,12%[46.1 µM],6%
CCCCCC(=O)Nc1cccc(C2=NOC3(C2)C[C@@H](C(N)=O)N(C(=O)c2ccc(OC)cc2)C3)c1 (stereo partly drawn),4%,.,.,2%,.,3%,.,-10%
O=S(=O)(c1ccc(Cl)cc1Cl)n1ccnc1,.,1.3%,-7%,.,12%[46.1 µM],.,-4%[46.1 µM],-18%
O=C(CCN1CCCCO1)N1CCCC(Nc2ccc(F)c(F)c2)C1 (stereo not drawn),-9%,.,.,6%,-19%,0%,-1%,-11%
Cc1ccc(C)n1-c1ccc(C(=O)N2CCOCC2)cc1,-4%,-2.2%,?,3%,1%,?,?,-23%
CCCCN(C(=O)c1cccc(S(=O)(=O)N2CCN(Cc3ccccc3)CC2)c1)c1ccccc1,-3%,.,.,2%,?,6%,?,-20%
O=C(Nc1cc(C(F)(F)F)ccc1Cl)c1cccnc1,10%,.,.,-11%,1%[46.1 µM],-13%,-2%[46.1 µM],-6%
COc1ccnc2c1c(=O)n(Cc1ccc(F)cc1)c(=O)n2C,0%,.,.,-5%,.,-27%,.,5%
O=C(Nc1ccc2oc(-c3cccc(Cl)c3Cl)nc2c1)c1cccc(Br)c1,.,-3.7%,10%,.,-8%[46.1 µM],.,.,-5%
Cc1ccc(NC(=O)COc2ccc(CCO)cc2-n2nc3ccccc3n2)cc1C,20%,-21%,?,?,?,17%,?,-18%
CN(C)c1ccc(CNn2cnnc2SCc2ccccc2F)cc1,-2%,3.1%,14%,-2%,29%,-18%,18%,43%[activator]
Cc1c(C(=O)Nc2ccc(OC(F)(F)F)cc2)sc2nc3n(c(=O)c12)CCC3,-9%,-0.6%,?,-23%,-15%,-12%,?,?
COc1ccc(OC)c(-c2nc(C(N)=O)c3c(n2)n(-c2ccc4c(c2)OCO4)c(=O)n3C)c1,.,-0.8%,-4%,.,-13%[46.1 µM],.,.,-1%
CN1C(C)(C)CC(=NO)CC1(C)C,2%,.,.,.,4%[46.1 µM],.,-6%[46.1 µM],-6%
